Bioassay records: PubChem BioAssay, ICCB-Longwood Screening Facility, Harvard Medical School
AID504770 = growth inhibitors of E. coli YBA685 in a screen for V. cholerae RctB (chromosome II replication) inhibitors. z-score (no concentration beside the values). actives 0.27% (n = 130,000). E. coli YBA685 rctB-dependent plasmid, OD600 growth, 3 h; stronger effect = lower value. AID 504770;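 active = z-score under -2 on both plates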;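 note: wells of about 30 µL received 100 nL stock; score is relative to mean and SD of the test wells; the first replicate is given; strong numbers were not always called active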
CapD inh = inhibitors of Bacillus anthracis CapD enzyme | purified CapD enzyme, fluorescence intensity read-out; stronger effect = lower value; some hits fall short of the stated cut | z-score (no concentration beside the values) | actives 0.23% (n = 140,000) | AID 492967;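 active = z-score under -4 in either of two replicates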;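 note: stock transfer was 100 nL into about 40 µL; score is relative to mean and spread of the plate; one replicate is shown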
* marks the source's active call; other numbers are inactive results; / = no result given; & = joins results of further samples. A portion of the library. The share of hits here may be higher or lower than overall.

cpd	Structure	AID504770	CapD inh
1	CCOC(=O)C1=C(C)N=c2s/c(=C\c3ccccc3OC(C)=O)c(=O)n2C1c1ccccc1OC(C)C (stereo not drawn)	/	-0.67
2	CC1(C)CC(=O)C=C(Nc2ccccc2F)C1	-2.55*	/
3	Cn1ccnc1C(=O)c1cccs1	-0.2	0.75
4	COc1ccc(/C=C/C(=O)NCC2(c3ccccc3)CCOCC2)cc1	-2.25	-0.715
5	COc1ccc(CNC(=O)CN2CCN(Cc3ccccc3)C2=O)cc1	-0.7	-0.07
6	O=S(=O)(c1ccccc1)c1nnn2c1nc(NC1CCCC1)c1sccc12	0.2	7.07
7	O=C(O)c1nc(-c2ccccc2)cc(-c2ccccc2)n1	0.65	1.58
8	CCCn1c(=S)[nH]c2cc(C(=O)N3CC(C)CC(C)C3)ccc2c1=O (stereo not drawn)	-0.65	1.49
9	CCNc1cc(Nc2ccccc2)c2c3c(onc13)-c1ccccc1C2=O	/	0.26
10	C/C=C1/C[N+]2(C)CCC34C(=C(C=O)[C@H]1C[C@@H]32)Nc1ccccc14 (stereo partly drawn)	/	0.105
11	CC(OC(=O)Cc1c[nH]c2ccccc12)C(=O)N1CCc2ccccc21 (stereo not drawn)	0.65	/
12	COc1ccc(OCC(O)CN(Cc2ccccc2)Cc2ccccc2)cc1 (stereo not drawn)	-0.35	/
13	CCCCn1nnnc1CSCC(=O)Nc1ccc2c(c1)OCCO2	-0.55	/
14	COc1ccc(C(CCN2C(=O)CCC2=O)C2CCOC(C)(C)C2)cc1 (stereo not drawn)	0	/
15	O=C(N=C=S)c1ccc2ccccc2c1	-1.1	/
16	Cc1cc(C)nc(SCC(=O)c2ccc3c(c2)OCCO3)n1	-0.1	/
17	Cc1cccc(NC(=O)c2cccc(C(=O)Nc3cccc(C)c3)c2)c1	-0.5	-0.42
18	CC12C=CC(O1)C1C(=O)N(c3ccc(F)c(Cl)c3)C(=O)C12 (stereo not drawn)	-0.45	0.015
19	Cn1c(C(Cc2ccccc2)NC(=O)c2ccccc2)nc2ccccc21 (stereo not drawn)	2.15	-0.34
20	O=C(O)c1sccc1S(=O)(=O)N1CCN(c2ccc(C(F)(F)F)cn2)CC1	-0.75	2.93
21	O=C(O)c1ccccc1-n1c(=O)c2cc3c(=O)n(-c4ccccc4C(=O)O)c(=O)c3cc2c1=O	-0.75	-0.025
22	Cc1cnc(C(=O)Nc2ccc(-n3cnnn3)cc2)cn1	-0.3	/
23	COc1cccc2c1OC(c1ccc(SC)cc1)N1N=C(c3ccc(F)cc3)CC21 (stereo not drawn)	/	-0.17
24	CCc1ccccc1-n1c(=S)[nH]c2ccccc2c1=O	/	-0.23
25	CC(C)(C)c1ccc(-c2noc(CNS(=O)(=O)c3ccccc3)n2)cc1	0.75	0.42
26	N#C/C(C(=O)NC1CC1)=c1/s/c(=C/c2ccco2)c(=O)n1-c1ccc(F)cc1	-0.25	/
27	O=C(NCc1ccco1)c1ccc(-c2cccc(Cl)c2)o1	1.75	0.345
28	CCOC(=O)CSCC(=O)N1c2cc(C)c(C)cc2-c2c(ssc2=S)C1(C)C	/	-0.645
29	CC1=CS(=O)(=O)CC1	-0.95	/
30	O=C(CCc1nc(-c2ccccc2)no1)NC1CCCC1	-0.2	/
31	CC(C)(C)c1ccc(C(=O)Oc2ccccc2CCC(=O)O)cc1	0.5	1.03
32	Cn1nnc(NC(=O)COc2ccccc2)n1	-0.8	/
33	CCCn1nnc(NC(=O)Cc2ccccc2)n1	-0.8	/
34	O=S(=O)(Cc1cccc(C(F)(F)F)c1)c1snnc1-c1ccccc1	/	-0.255
35	CC1=C(C(=O)OCC(F)(F)F)C(c2ccc(OCc3ccccc3)cc2)NC(=O)N1 (stereo not drawn)	/	-0.515
36	COc1ccccc1CNCCN1CCOCC1	0.35	/
37	COc1ccc(N2C(=O)C3CC=CC(C)C3C2=O)cc1 (stereo not drawn)	-0.25	27.2
38	CCOc1ccc(-c2c(C#N)c(N)nc(SCC(=O)c3ccc(C)cc3)c2C#N)cc1	/	6.02
39	COC(=O)c1cn(Cc2ccc(Cl)cc2)cc(F)c1=O	0.6	0.945
40	N#CCc1ccc(C(=O)c2ccco2)s1	-0.25	-2.25
41	CC(C)C1NC(=O)CNC1=O (stereo not drawn)	-0.7	0.075
42	O=C(CSc1nccc(-c2cccs2)n1)N1CCc2c([nH]c3ccccc23)C1C(F)(F)F (stereo not drawn)	/	0.16
43	CCc1ccc(N/C(SCc2ccc(Cl)cc2)=C(/C#N)C(N)=O)cc1	/	1.1
44	O=C(O)COc1ccc(OCc2ccccc2)cc1	-0.2	0.03
45	O=c1[nH]c(CN2CCCC2)nc2scc(-c3ccc(Cl)cc3)c12	-0.25	1.26
46	Cc1cc(S(=O)(=O)N2CCCc3ccccc32)ccc1OCC(N)=O	-0.65	/
47	COc1ccc(-c2nnc(SCC(=O)NCCCc3ccccc3)n2N)cc1	0.35	/
48	CNCc1ccc(F)cc1	1.1	/
49	O=[N+]([O-])c1c(NCCO)cc(N2CCN(c3ccccn3)CC2)c2nonc12	/	0.05
50	OC(OCC1Cc2ccccc2O1)C1Cc2ccccc2O1 (stereo not drawn)	0.45	-0.035
51	O=C(O)CC1(CC(=O)N2CCN(c3nc(-c4ccccc4)c4ccccc4n3)CC2)CCCC1	/	0.245
52	O=C(CSCc1ccco1)c1cc2ccccc2o1	-0.3	-0.515
53	CS(=O)(=O)Nc1csc2cc(C(F)(F)F)cc(Cl)c12	0	-0.755
54	Cn1cc(C(=O)c2cccc(Cl)c2Cl)cc1C(N)=O	0.2	0.455
55	COC(=O)COc1ccc(S(=O)(=O)N2CCCCC2)cc1C	0.1	/
56	C[C@H](N)[C@H](O)c1ccc(O)c(O)c1	0.1	-0.905
57	O=C(O)CCC(=O)Nc1ccc(C(=O)N2CCCCC2)cc1	-0.25	0.35
58	O=C1NC(=O)N(c2ccc(Br)cc2)C(=O)/C1=C/c1ccc(N2CCCC2)o1	/	-0.045
59	N#Cc1ccc(CSc2nc3ccccc3s2)cc1	-0.65	-1.57
60	COc1cccc(NC(=O)CN(C)CC(=O)Nc2cccc(C#N)c2)c1	-0.4	/

Next entries follow:
cpd	Structure	AID504770	CapD inh
61	Cc1nnc(SCC(=O)c2ccc3c(c2)NC(=O)CO3)n(N)c1=O	0.75	/
62	COc1cc(/C=c2/sc3nc4cc(C)c(C)cc4n3c2=O)cc(Br)c1O	/	0.335
63	c1ccc2c(c1)CCN(Cn1cnc3ccccc31)C2	-0.4	-0.235
64	O=C(CCN1C(=O)S/C(=C\c2ccc(Cl)cc2)C1=O)Nc1ccc(S(=O)(=O)Nc2nccs2)cc1	/	-1.39
65	CCOC(=O)C1=C(C)NC(=O)NC1c1ccc(OCC(=O)N/N=C/c2ccc(N(C)C)cc2)c(OC)c1 (stereo not drawn)	-0.65	59.8
66	CCCNS(=O)(=O)c1ccc(-c2ccc(=O)[nH]n2)o1	-0.55	5.76
67	CCOC(=O)c1c(NC(=O)CSc2nnc(CNC(=O)c3ccc([N+](=O)[O-])cc3)n2C)sc2c1CCCC2	/	-0.84
68	Cn1[nH]c(=O)c2cnc3c(F)cc(F)cc3c21	/	-1.25
69	COC(=O)C1C(=O)NC(SCC(=O)Nc2ccc(OC)cc2)=C(C#N)C1c1ccccc1OC (stereo not drawn)	/	-0.195
70	CCOC(=O)c1c(C)oc2c(Br)cc(NS(=O)(=O)c3ccc(OCC)cc3)cc12	/	0.255
71	CCc1ccccc1NC(=O)c1ccc(F)c(S(=O)(=O)N2CCN(c3ccccc3)CC2)c1	/	-0.18
72	CCOC(=O)CC1=C(C(=O)OCC)C(c2ccc([N+](=O)[O-])cc2)C(C#N)=C(N)O1 (stereo not drawn)	/	0.015
73	O=C(O)CCCC(=O)Nc1nc(-c2ccccc2)cs1	-0.1	-0.47
74	CCOC(=O)c1cc(C#N)c(Nc2ccccc2)nc1C(F)(F)F	-0.75	-0.53
75	CCCCS(=O)(=O)N1CCOCC1	0.4	-0.6
76	CC1CCN(C(=O)Oc2ccccc2)CC1	2.75	-0.35
77	CC1CCCCC12NC(=S)N(c1ccc(Cl)cc1)N2 (stereo not drawn)	1.45	-0.59
78	Cc1ccccc1Oc1ccc(-c2nc(N)nc(N)n2)cc1	-0.45	/
79	CCOC(=O)CCCCCOC(=O)N(C)CCCN1c2ccccc2CCc2ccccc21	/	0.05
80	CCc1ccc(-c2cc(C(=O)OC)c3ccccc3n2)cc1	-0.55	35.2
81	CCOC(=O)C1=C(C)NC2=C(C(=O)c3ccccc32)C1c1ccccc1 (stereo not drawn)	/	-0.08
82	Cc1c2cnn(-c3ccccc3)c(=O)c2c(C)n1CCCC(=O)N1CCOCC1	0	0.1
83	Cn1nnnc1CN1CCOCC1	0.3	0.055
84	CC(=O)OC(C(=O)N1CCN(c2ccccc2F)CC1)c1ccccc1 (stereo not drawn)	-0.25	1.02
85	CCOC(=O)c1oc2ccccc2c1NC(=O)c1ccccc1	1.2	-0.455
86	CSc1nnc(-c2ccc(C(F)(F)F)nc2C)o1	-0.85	6.05
87	Oc1ccc2oc3c(c2c1)CCCC3	-0.9	1.13
88	O=c1nc(-c2ccccc2)cn[nH]1	-0.1	-0.835
89	C(=N\N=C(c1ccccc1)C12CN3CN(CN(C3)C1)C2)/c1ccccc1	1.55	-0.555
90	O=C(Nc1ccccc1)N1CCN(C(c2ccccc2)c2ccccc2)CC1	/	0.005
91	COc1ccc2c(=O)c(Oc3ccccc3F)c(C)oc2c1	-0.25	0.62
92	O=C(O)c1ccc(N=Cc2ccc3c(c2)OCO3)cc1	/	0.54
93	Cc1ccc(OCC(=O)NC2CCC(C)CC2)cc1C (stereo not drawn)	0.25	/
94	O=c1[nH]oc2c1CCNC2	/	-0.335&0.33
95	Cc1nn(C)c(Sc2ccc(Cl)cc2)c1C(=O)Nc1ccc(F)cc1F	/	-0.205
96	CC(=O)c1c(C)oc2c1cc(O)c1c2c(-c2ccc([N+](=O)[O-])cc2)nn1-c1ccccc1	/	0.16
97	CCN=C1SC(CC(=O)Nc2ccccc2)C(=O)N1CC (stereo not drawn)	-1.3	/
98	COCC(=O)NC1(c2nnnn2-c2cccc(Cl)c2)CCCCC1	/	4.92
99	Cc1[nH]c2ccccc2c1C(=O)CSc1ncnc2ccccc12	0.3	-0.24
100	Cc1ccc(N2C(=O)C3C4C=CC(CNC(=S)NCc5ccccc5)(O4)C3C2=O)cc1 (stereo not drawn)	-0.15	0.375
101	COc1cc(OC)c(C(=O)N2CCCN(C)CC2)cc1OC	-0.85	0.205
102	O=C1CCCc2ccccc2N1Cc1ccccc1	0.7	0.235
103	Cc1cc(=O)oc2c3c(ccc12)O/C(=C/c1ccc([N+](=O)[O-])cc1)C3=O	/	0.205
104	CCn1c(=O)c2ccccc2c2c(O)nc(-c3ccccc3)n21	0	/
105	CCn1c(CCCNC(=O)c2ccc(OC)c(OC)c2)nc2ccccc21	-0.15	-1.08
106	O=C(O)CCN1CCC(c2nc(-c3cccnc3)no2)CC1	/	-0.455
107	Cc1ccccc1NC(=O)C1COc2ccccc2O1 (stereo not drawn)	/	-0.135
108	CCC(=O)Oc1ccccc1C1OCC2C(C)C=C(C)C1C2C (stereo not drawn)	/	0.665
109	O=C(Cc1cc(F)cc(F)c1)n1nccc1-c1cccs1	-1.2	-0.735
110	CCOC(=O)c1oc2cc(OC)c(CC)cc2c(=O)c1-c1csc(-c2ccccc2)n1	/	-1.72
111	CCOC(=O)c1c(NC(=O)C2COc3ccccc3O2)sc2c1CCCC2 (stereo not drawn)	/	0.88
112	CC1CCCCN1Cc1c(O)ccc2c3c(c(=O)oc12)CCC3 (stereo not drawn)	/	43.5
113	O=C(O)C1C2C=CC3(CN(C4CCCC4)C(=O)C13)O2 (stereo not drawn)	1.4	0.045
114	COc1ccccc1Nc1nc2nonc2nc1Nc1ccc(C)c(Cl)c1	/	-0.255
115	COc1ccc(C2CC(c3ccc(OC)c(OC)c3)=NN2C(=O)c2ccccc2)cc1 (stereo not drawn)	/	-0.4
116	O=C(NCCN1C(=O)S/C(=C\c2ccc(Cl)c(Cl)c2)C1=O)C1=COCCO1	1.55	/
117	O=C(CSc1cccc[n+]1[O-])c1cccs1	-0.65	0.655
118	O=S(=O)(c1ccc(F)cc1)N1CCCC1	/	-0.195
119	O=C(O/N=C/c1ccc(OCc2ccccc2)cc1)c1ccc(Cl)cc1	/	-0.14
120	CCOc1ccc(/C=C2/SC(=S)N(CC(=O)O)C2=O)cc1	/	-0.21

Reprinted at random: 4 compounds from above.
cpd	Structure	AID504770	CapD inh
111	CCOC(=O)c1c(NC(=O)C2COc3ccccc3O2)sc2c1CCCC2 (stereo not drawn)	/	0.88
118	O=S(=O)(c1ccc(F)cc1)N1CCCC1	/	-0.195
104	CCn1c(=O)c2ccccc2c2c(O)nc(-c3ccccc3)n21	0	/
114	COc1ccccc1Nc1nc2nonc2nc1Nc1ccc(C)c(Cl)c1	/	-0.255

Remaining list, next part
cpd	Structure	AID504770	CapD inh
121	Cc1cccc(C(=O)Nc2ccccc2N2CCN(S(C)(=O)=O)CC2)c1	/	-0.205
122	Cc1ccc(-c2nc(NCCC3=CCCCC3)c3ccccc3n2)cc1	0.05	0.435
123	O=C(/C=C/c1ccccc1)N1CCN(S(=O)(=O)c2ccc(F)cc2)CC1	1.35	1.12
124	CC(C)(C)c1cc(C(C)(C)C)n(-c2ccc(C(=O)NNC(=O)c3ccco3)cc2)n1	/	-0.195
125	CC(=O)Nc1ccc(SCC(=O)N(C)C2CCCCC2)cc1	2	/

Profiles from above. Screens in order: AID504770, CapD inh
`Cn1nnc(NC(=O)COc2ccccc2)n1` across the screens: -0.8, /
`Cc1ccccc1Oc1ccc(-c2nc(N)nc(N)n2)cc1` across the screens: -0.45, /
